NPYLR7 agonist – agonists of mosquito NPYLR7 receptor, primary screen, cell-based, Aedes aegypti, calcium fluorescence, mosquito biting behavior. Aedes aegypti neuropeptide Y-like receptor 7 (NPYLR7). 0.15% of 270,000 active. HEK293T NPYLR7/Galpha15, GCaMP6s calcium fluorescence. activation, % at 10 µM; in the data active = activation above about 40%;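 note: 0% = vehicle and 100% = reference agonist at the receptor; some compounds past the cut are filed as inactive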
NPYLR7 agonist max-min – further read-out of NPYLR7 agonist, marked with its call; activation, %; measured here: Max-Min RFU normalised activation; some inactives read as strong as hits;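 span of the calcium signal over five minutes; 0% = vehicle and 100% = native peptide agonist; compound fluorescence can raise it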
An asterisk follows results filed as active; & = joins results of further samples. Some of the compounds tested. The share of hits here may be higher or lower than overall.

SMILES	NPYLR7 agonist	NPYLR7 agonist max-min
Cc1ncc(C(=O)N2CCCC3(CNC(=O)O3)C2)c(-c2ccccc2)n1 (centres undefined)	6	-5
CC(C)(C)c1cc2nc(C(=O)N3CCN(c4ccccc4F)CC3)cc(-c3ccccc3F)n2n1	11	16
O=c1c(C(F)(F)F)cc(C2CC2)nn1CN1CCC1c1ccccc1 (centres undefined)	6	3
Cc1cc(F)ccc1NC(=O)CCC1CCCN(C(=O)c2ccoc2)C1 (centres undefined)	15	1
OCCC1CCN(Cc2cc(F)cc(Br)c2)C1 (centres undefined)	-1	-2
O=C1CN(NC(=O)CC(O)(c2nc3ccccc3s2)C(F)(F)F)C(=O)N1 (centres undefined)	3	7
CC1(C2CCN(C(=O)c3cc4ccccc4oc3=O)CC2)NC(=O)N(Cc2ccsc2)C1=O (centres undefined)	-7	-7
c1ccc(C(Cn2ccnc2)n2ccnc2-c2ccccn2)cc1 (centres undefined)	4	1
NC(=O)c1cc2cc(Br)ccc2oc1=Nc1cccc(F)c1	-7	-11
Cc1[nH]n(-c2nc(-c3cccc([N+](=O)[O-])c3)cs2)c(=O)c1N=Nc1ccc(Cl)cc1Cl	-8	-13
CCn1ccnc1SCC(=O)N(C)CC(=O)Nc1ccccc1Cl	5	4
Cc1cccc(NC(=O)CC2C(=O)NCCN2C(=O)CN2CCN(c3ncccn3)CC2)c1 (centres undefined)	-15	-18
Oc1ccc(-c2ccccc2)cc1Br	-4	-6
CCN1CCN(c2c(CN(CCC(C)C)S(=O)(=O)c3ccc([N+](=O)[O-])cc3)c(C)nn2-c2ccccc2)CC1	-1	9
CCNC(=O)Nc1ccc(N(C)C)c(CN(C(=O)c2ccc(F)cc2)C(C)c2ccccc2)c1 (centres undefined)	7	24
Cc1ccccc1OCC1=NN2C(=N)/C(=C/C=C/c3ccccc3)C(=O)N=C2S1	-1	-2
O=C(NCCSC1Sc2ccccc2NC1=O)NC1CCCCC1 (centres undefined)	-14	-22
N#CCCSc1nn(-c2ccccc2)c(=S)s1	4	10
CN(CCCN1c2ccccc2CCc2ccccc21)S(=O)(=O)c1ccc(Cl)s1	-7	-12
O=C(c1ccc(Cl)s1)N(CCCn1ccnc1)c1nc2c(F)cc(F)cc2s1	-13	-17

Another view of two compounds above.
CCN1CCN(c2c(CN(CCC(C)C)S(=O)(=O)c3ccc([N+](=O)[O-])cc3)c(C)nn2-c2ccccc2)CC1
  NPYLR7 agonist = -1
  NPYLR7 agonist max-min = 9

CCNC(=O)Nc1ccc(N(C)C)c(CN(C(=O)c2ccc(F)cc2)C(C)c2ccccc2)c1 (centres undefined)
  NPYLR7 agonist = 7
  NPYLR7 agonist max-min = 24

New compounds follow:
SMILES	NPYLR7 agonist	NPYLR7 agonist max-min
CCC1CN(C(=O)CCc2cccnc2)CCC(=O)N1Cc1ccccc1 (centres undefined)	4	-3
O=C(O)C1Cc2c([nH]c3ccccc23)C(c2ccccc2)N1 (centres undefined)	-5	-13
CN(C1CCCCC1)S(=O)(=O)c1ccsc1C(=O)O	5	2
CCCCNC(=O)N1CCCC(CNC(=O)COc2ccccc2OC)C1 (centres undefined)	-5	-6
CS(=O)(=O)NCC1CCCN(c2ncnc3cc(Cl)ccc23)C1 (centres undefined)	-3	-4
CCOc1cc(CN2CCCn3cccc3C2c2ccc(C)c(C)c2)ccc1O (centres undefined)	2	14
N=C1C(=O)OCC1c1cc(Cl)ccc1N (centres undefined)	10	6
COc1ccc(OC)c(S(=O)(=O)Nc2cc(OC)c(Cl)cc2OC)c1	-7	-7
O=C(OCc1nc(C(=O)Nc2cccc(Cl)c2)cs1)c1ccccc1	-5	-14
CCOC(=O)C(CC)n1ncn2c(cc3occc32)c1=O (centres undefined)	-1	-3
Clc1cccc(Nc2c3c(nc4nncn24)CCC3)c1	1	-3
O=C(c1ccccc1)N1C[C@H]2[C@H](O)[C@@H]3C[C@H](c4ccc(F)cc4)[C@@H](O3)[C@H]2C1	8	9
COc1ccc(OC)c(/C=C2\C(=O)N(c3ccc(Cl)c(C(=O)O)c3)N=C2C)c1	-19	-26
COc1cccc(Cn2c(C(=O)N3CCN(C(=O)Cc4ccccc4)C(C)C3)cc3ccoc32)c1 (centres undefined)	-1	1
CCCC(NC(=O)Cc1cc(C)no1)c1cccs1 (centres undefined)	27	11
O=C(NCc1ccco1)c1c(O)c2ccccc2[nH]c1=O	-8	-13
CCc1nc2ccc(C(=O)Nc3cccc(COC)c3)cc2nc1CC	6	5
CCc1c(C(=O)N2CCCC2Cn2cccn2)[nH]c2ccccc12 (centres undefined)	12	11
Cc1ccc2c(N3C[C@H]4C[C@H](O)[C@H](O)C[C@H]4C3)ccnc2c1C	6	2
CN(CCc1ccccn1)C(=O)CCC1CCCN(C(=O)CC2=CCCCC2)C1 (centres undefined)	8	5

A stretch taken from the entries so far, for reference:
SMILES	NPYLR7 agonist	NPYLR7 agonist max-min
O=C(c1ccc(Cl)s1)N(CCCn1ccnc1)c1nc2c(F)cc(F)cc2s1	-13	-17
CCC1CN(C(=O)CCc2cccnc2)CCC(=O)N1Cc1ccccc1 (centres undefined)	4	-3
O=C(O)C1Cc2c([nH]c3ccccc23)C(c2ccccc2)N1 (centres undefined)	-5	-13
CN(C1CCCCC1)S(=O)(=O)c1ccsc1C(=O)O	5	2
CCCCNC(=O)N1CCCC(CNC(=O)COc2ccccc2OC)C1 (centres undefined)	-5	-6
CS(=O)(=O)NCC1CCCN(c2ncnc3cc(Cl)ccc23)C1 (centres undefined)	-3	-4
CCOc1cc(CN2CCCn3cccc3C2c2ccc(C)c(C)c2)ccc1O (centres undefined)	2	14
N=C1C(=O)OCC1c1cc(Cl)ccc1N (centres undefined)	10	6
COc1ccc(OC)c(S(=O)(=O)Nc2cc(OC)c(Cl)cc2OC)c1	-7	-7
O=C(OCc1nc(C(=O)Nc2cccc(Cl)c2)cs1)c1ccccc1	-5	-14
CCOC(=O)C(CC)n1ncn2c(cc3occc32)c1=O (centres undefined)	-1	-3
Clc1cccc(Nc2c3c(nc4nncn24)CCC3)c1	1	-3
O=C(c1ccccc1)N1C[C@H]2[C@H](O)[C@@H]3C[C@H](c4ccc(F)cc4)[C@@H](O3)[C@H]2C1	8	9
COc1ccc(OC)c(/C=C2\C(=O)N(c3ccc(Cl)c(C(=O)O)c3)N=C2C)c1	-19	-26
COc1cccc(Cn2c(C(=O)N3CCN(C(=O)Cc4ccccc4)C(C)C3)cc3ccoc32)c1 (centres undefined)	-1	1
CCCC(NC(=O)Cc1cc(C)no1)c1cccs1 (centres undefined)	27	11
O=C(NCc1ccco1)c1c(O)c2ccccc2[nH]c1=O	-8	-13
CCc1nc2ccc(C(=O)Nc3cccc(COC)c3)cc2nc1CC	6	5
CCc1c(C(=O)N2CCCC2Cn2cccn2)[nH]c2ccccc12 (centres undefined)	12	11
Cc1ccc2c(N3C[C@H]4C[C@H](O)[C@H](O)C[C@H]4C3)ccnc2c1C	6	2
CN(CCc1ccccn1)C(=O)CCC1CCCN(C(=O)CC2=CCCCC2)C1 (centres undefined)	8	5

Other records
SMILES	NPYLR7 agonist	NPYLR7 agonist max-min
COc1ccc(-c2nn(-c3ccccc3C)cc2CNC2CCOCC2)cc1F	7	3
CCOP(=O)(Cc1ccc(NC(=O)CCN2C(=O)CCNC2=S)cc1)OCC	-2	-4
c1ccc(N2CCN(CC3OCCO3)CC2)cc1	21	12
COc1ccc(NC(=O)N2CCN(CC(OCc3cccc(C)c3)c3ccc(Cl)cc3)CC2)c(OC)c1 (centres undefined)	-8	-10
O=C1/C(=C/c2cccc(F)c2)Oc2c1ccc1c2CN(C2CC2)CO1	-2	-7
Fc1ccc(-c2noc3c2CN(Cc2ccc4c(c2)OCCO4)CC3)cc1F	18	17
Nc1nc(SCC(=O)NC2CC2)nc2sc3c(c12)CCC3	6	7
O=C(CCl)Nc1ccccc1C(=O)NCc1ccco1	2	0
O=C(CS(=O)(=O)C1CCCC1)N(Cc1cccc(O)c1)C1CC1	-8	62
COCCCN(Cc1c(C)nn(-c2cccc(F)c2)c1N1CCN(C)CC1)C(=O)Nc1ccccc1C	-1	3
Cc1ccc(NS(=O)(=O)c2cccc(C(=O)NN3CCOCC3)c2)cc1	-4	-9
COc1cn(CC(=O)Nc2ccc(OC(F)(F)F)cc2)c(CSc2ncccn2)cc1=O	-3	-8
Cc1ccc(S(=O)(=O)CC(=O)N(Cc2ccccn2)c2nc3ccccc3s2)cc1	1	-4
Cc1nc2ccccc2nc1CN1CCCC2(C1)C(=O)Nc1ccccc12 (centres undefined)	1	-2
O=C(c1ccccc1F)N1CCN(Cc2nc3ccccc3c(=O)[nH]2)CC1	2	2
CCc1cccc2c(C(CC(=O)NCc3ccccc3)c3ccc(OC)cc3OC)c[nH]c12 (centres undefined)	13	14
O=C(CNC(=O)c1ccc(F)cc1)N=Nc1c(O)[nH]c2ccc([N+](=O)[O-])cc12	2	1
Nc1cc(S(=O)(=O)O)cc([N+](=O)[O-])c1O	1	2
Cn1cccc1C(=O)NC(=O)COC(=O)C1=NNC(=O)CC1	4	2
CCn1cc(C(CC(=O)N2CCC3(CC2)OCCO3)c2cccc(Cl)c2)c2ccccc21 (centres undefined)	23	24
COc1ccccc1Oc1c(NS(=O)(=O)c2ccc(C(C)(C)C)cc2)nc(-c2ncccn2)nc1OCCO	-20	-31
CCCCN(Cc1cccn1Cc1cccc(C(F)(F)F)c1)C(=O)Nc1ccc(OC)cc1	20	28
O=C(O)C1Cc2c([nH]c3ccccc23)C(c2ccc(Br)cc2)N1 (centres undefined)	-5	-11
CCC(CO)N1CCN(C(=O)Nc2ccc3[nH]ccc3c2)CC1 (centres undefined)	2	0
CC(C)c1ccc(N2C(=O)CSC2c2ccc(NC(=O)c3ccc(Cl)cc3)cc2)cc1 (centres undefined)	-2	1
c1ccc(-c2cccc3[nH]ccc23)c(OCCn2ccnc2)c1	11	-7
CC(C)Cn1c(CN2CCC(=O)NCC2C)nc2ccccc21 (centres undefined)	2	-1
CC1CCC(N(C)C(=O)NC2CCN(Cc3ccccc3)CC2)CC1 (centres undefined)	0	-2
CCOC(=O)COc1coc(CN2CCN(c3ccccc3)CC2)cc1=O	2	0
CCc1cc(N2CCCCC2C)nc(SCc2ccc(C(=O)O)cc2)n1 (centres undefined)	-10	-8
C=CCN1C(=O)NC(c2cccc(Cl)c2)C2=C1CN(CC(=O)NCCCN1CCCC1=O)C2=O (centres undefined)	-3	2
CCN(CC)C(=O)CN(C)C(=O)c1c[nH]cc1-c1cccc(OC)c1	30	27
O=C(CCl)Nc1ccc(N2CCCCCC2)cc1	5	2
COc1cccc(NC(=O)N(CC(=O)N(CCc2c[nH]c3ccccc23)Cc2ccc(C)cc2)C2CC2)c1	31	33
N#CC1(C(=O)OCC(=O)N2CCN(C(=O)COC(=O)C3(C#N)CCCC3)CC2)CCCC1	0	5
FC(F)(F)c1cccc(-c2nc3c(NCc4ccncc4)nccc3[nH]2)c1	-2	-12
C=CCn1c(SCC(C)=O)nc2sc3c(c2c1=O)CCC(C)C3 (centres undefined)	3	0
Cc1noc(C)c1C(=O)N1CCN(C(c2ccc(Cl)cc2)c2ccc(Cl)cc2)CC1	-2	-3
CCCCn1c(CN2CC(C)OC(C)C2)nc2c1c(=O)n(C)c(=O)n2C (centres undefined)	4	2
CCOC(=O)N1CCC2(CC1)OC(=O)C(C)=C2C(=O)O	7	6
COCC(=O)N1CCN(c2cc(OC)ccc2OC)C(=O)C1C (centres undefined)	-1	2
CCCNCC(O)COc1ccccc1C(=O)CCc1ccccc1 (centres undefined)	23&-1&3&-3&3	5&-3&-3&-6&-38
CC(C)CNC(=O)NC(=O)CSc1nnc(C2CC2)n1C1CC1	6	4
O=C(NCc1cc2c([nH]c1=O)CCC2)NCC(F)(F)F	-2	800
COc1ccccc1NC(=O)Cn1c(=O)n(Cc2ccco2)c(=O)c2oc3ccccc3c21	8	8
COC(=O)c1ccc(NS(=O)(=O)c2ccc(C(=O)O)cc2Br)cc1	-1	75
COCCn1c(SCC(=O)OC)nc2c1c(=O)[nH]c(=O)n2C	0	11
CC(=O)C(C)n1c(=O)c2c(nc3n(-c4ccc(C(F)(F)F)cc4)c(C)cn23)n(C)c1=O (centres undefined)	1	2
COc1ccc(NC(=O)N2CCN(C(C(=O)NCc3ccco3)C3CCCC3)CC2)cc1 (centres undefined)	-5	-5
Clc1ccccc1-c1cnn2c(NCc3ccc4c(c3)OCO4)ccnc12	-4	-6
Carrying on.
SMILES	NPYLR7 agonist	NPYLR7 agonist max-min
CCC(C)NC(=O)c1c(N)n(/N=C\c2cccc(O)c2)c2nc3ccccc3nc12 (centres undefined)	3	-5
CCC(=O)N(c1nnc(SC(C)C(=O)c2[nH]c(C)c(C(C)=O)c2C)s1)C1CC1 (centres undefined)	1	5
Cc1cnc(C)c(Nc2nc(C(N)Cc3ccc(F)cc3)cs2)n1 (centres undefined)	-4	-8
COc1cccc(C(=O)N2CCOC(Cc3ccc(F)cc3)C2)c1OC (centres undefined)	2	-1
Cn1ccc(NCc2cc3cc(F)ccc3o2)n1	5	1
Cc1c(C)n2c3c(=O)n(CC(N)=O)c(=O)n(C)c3nc2n1C1CCCCC1	16	5
CCCCN(Cc1ccccc1)Cc1nc(-c2ccc(C(=O)OC)cc2)no1	11&-7	11&-8
COc1ccc(OCC(O)CN2CCC(=O)N(CC=C(C)C)CCc3ccccc32)cc1 (centres undefined)	-3	10
Cc1ccccc1Cn1c(C)c(C(=O)NCc2ccccn2)sc1=O	-3	-5
O=C(NN=Cc1ccccc1O)c1cc(-c2ccc(Br)s2)[nH]n1	-1	-5
N#CC(=C(O)CSc1nc(N)cc(=O)[nH]1)c1nc2ccccc2[nH]1	0	0
CCOc1ccc(-c2ccc(OCCNS(=O)(=O)c3ccc(C)cc3)nn2)cc1	-7	-6
Nc1c(S(=O)(=O)c2ccc(F)cc2)c2nc3ccccc3nc2n1Cc1ccccc1	2	7
OCc1cc(-c2cncnc2)ccc1F	3	3
COc1cccc(OCc2ccccc2)c1C(=O)NCC(C)(C)CN(C)C	-18	-22

Compound activity from PubChem BioAssay.
